UUG fidelity: modulators of yeast start codon fidelity, primary screen, whole organism, S. cerevisiae, single point, plate reader; S. cerevisiae UUG-firefly luciferase reporter, luminescence/redox ratio; activity score, % at 18.7 µM; 0.13% of 350,000 active;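 active = replicate mean at a twofold rise or more, about +100% in these data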;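 note: firefly luciferase made from a UUG start codon reports start codon fidelity; reporter light over untreated wells divided by growth signal over untreated wells; some hits fall short of that in this replicate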
Env fusion inh: inhibitors of HIV-1 Env-driven cell-cell fusion, primary screen, HeLa-JRFL effector, CEM21 target cells, luciferase; inhibition, % at 12.3 µM; 1.1% of 360,000 active;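 active = mean replicate inhibition score of at least 50 and every replicate individually at or above 50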;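 note: 0% = plate neutral controls and 100% = maraviroc near 300 nM; one replicate is shown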
An asterisk follows results filed as active; [ ] = remark or other dose.

SMILES | UUG fidelity | Env fusion inh
COc1ccc(CN(C)C[C@H]2OCCCC[C@H](C)Oc3ccc(NC(=O)c4ccncc4)cc3C(=O)N([C@@H](C)CO)C[C@H]2C)cc1 | -1 | -12[16.7 µM]
Cc1ccccc1S(=O)(=O)N[C@H]1CC[C@@H](CCn2cc(-c3ccccc3)nn2)O[C@H]1CO | 22 | 50[16.7 µM]
COc1ccc(S(=O)(=O)N(C)C[C@@H]2Oc3ccc(NS(=O)(=O)c4ccccc4)cc3CC(=O)N([C@H](C)CO)C[C@@H]2C)cc1 | -14 | 10[16.7 µM]
C[C@H]1CCCCO[C@@H](CN(C)C(=O)CCC(F)(F)F)[C@@H](C)CN([C@@H](C)CO)C(=O)c2cc(NS(=O)(=O)c3ccccc3)ccc2O1 | 1 | -3[16.7 µM]
C[C@H](CO)N1C[C@H](C)[C@@H](CN(C)Cc2ccc(-c3ccccc3)cc2)Oc2c(NC(=O)C3CCCCC3)cccc2C1=O | 3 | -20[16.7 µM]
O=C(NCC[C@@H]1CC[C@H](NC(=O)C2CCCCC2)[C@@H](CO)O1)c1ccc(F)cc1 | 4 | -16[16.7 µM]
O=C(N[C@@H]1CC[C@@H](CC(=O)N2CCN(c3ccccc3)CC2)O[C@H]1CO)c1ccncc1 | -11 | -4[16.7 µM]
COc1ccc(NC(=O)N[C@H]2CC[C@@H](CCn3cc(C4(O)CCCC4)nn3)O[C@H]2CO)cc1 | -12 | 3[16.7 µM]
C[C@H]1CCCCO[C@@H](CN(C)Cc2ccc(C(F)(F)F)cc2)[C@@H](C)CN([C@@H](C)CO)C(=O)c2cc(NC(=O)CCCN(C)C)ccc2O1 | 13 | -21[16.7 µM]
Cc1ccc(S(=O)(=O)N[C@H]2C=C[C@@H](CC(=O)NCCc3ccncc3)O[C@@H]2CO)cc1 | -20 | -4[16.7 µM]
O=C(C[C@@H]1CC[C@@H](NC(=O)c2ccc(F)cc2)[C@@H](CO)O1)NCCc1ccccc1 | -11 | -1[16.7 µM]
CNC[C@@H]1OCCCC[C@@H](C)Oc2ccc(NS(=O)(=O)c3ccc(Cl)cc3)cc2C(=O)N([C@H](C)CO)C[C@@H]1C | 7 | 13[16.7 µM]
CCCNC(=O)N(C)C[C@H]1Oc2ncc(C3=CCCCC3)cc2C(=O)N([C@H](C)CO)C[C@H]1C | -11 | 5[16.7 µM]
C[C@@H]1CN([C@@H](C)CO)C(=O)c2cccc(N(C)C)c2O[C@H]1CN(C)Cc1ccc(Cl)c(Cl)c1 | -4 | 14[16.7 µM]
O=C(C[C@H]1CC[C@H](NC(=O)CN2CCOCC2)[C@H](CO)O1)NC1CCCCC1 | -1 | -16[16.7 µM]
O=C1O[C@@H](c2ccccc2)[C@@H](c2ccccc2)N2[C@@H](c3ccc(OCCO)cc3)[C@]3(C(=O)Nc4ccc(C#CC5=CCCCC5)cc43)[C@@H](C(=O)NC[C@H](O)c3ccccc3)[C@H]12 | 4 | 14[16.7 µM]
C[C@@H]1CN([C@H](C)CO)C(=O)c2cc(NC(=O)Nc3ccc4c(c3)OCO4)ccc2O[C@@H](C)CCCCO[C@@H]1CN(C)C(=O)CCC(F)(F)F | 0 | -4[16.7 µM]
O=C(CCN1CCCCC1)NCC[C@@H]1CC[C@@H](NC(=O)C2CCCC2)[C@@H](CO)O1 | -4 | -5[16.7 µM]
O=C(C[C@@H]1C=C[C@@H](NC(=O)Nc2ccccc2F)[C@H](CO)O1)NCc1ccc(Cl)cc1 | -15 | -5[16.7 µM]
COc1cccc(C#Cc2cnc3c(c2)C(=O)N([C@@H](C)CO)C[C@H](C)[C@@H](CN(C)C(C)=O)O3)c1 | 5 | 16[16.7 µM]
CCCNC(=O)C[C@H]1CC[C@H]2[C@@H](COc3ccc(NC(=O)c4cccc(OC)c4)cc3C(=O)N2C)O1 | 20 | -3[16.7 µM]
COc1ccc(NC(=O)Nc2ccc3c(c2)C(=O)N([C@H](C)CO)C[C@H](C)[C@@H](CN(C)Cc2ccccc2)OCCCC[C@@H](C)O3)cc1 | 0 | 3[16.7 µM]
C[C@@H]1CN([C@H](C)CO)S(=O)(=O)c2ccc(C3=CCCCC3)cc2O[C@H]1CN(C)C(=O)CC1CC1 | 13 | -23[16.7 µM]
C[C@H](CO)N1C[C@H](C)[C@H](CN(C)C(=O)Nc2ccc(C(F)(F)F)cc2)OCCCC[C@H](C)Oc2ccc(NS(=O)(=O)c3ccc(Cl)cc3)cc2C1=O | -4 | 29[16.7 µM]
C[C@@H]1CN([C@@H](C)CO)C(=O)Cc2cc(NC(=O)C3CCCCC3)ccc2O[C@@H]1CN(C)Cc1ccc(Oc2ccccc2)cc1 | 1 | -35[16.7 µM]
C[C@H]1CN([C@@H](C)CO)C(=O)Cc2cc(NC(=O)CCN3CCOCC3)ccc2O[C@H]1CN(C)C(=O)Nc1ccc(F)cc1 | -17 | 1[16.7 µM]
CCO[C@@H]1OC(C(=O)N2CCCC2)=C[C@H](c2ccccc2)[C@H]1CCCO | 25 | 14[16.7 µM]
COc1ccc(NC(=O)Nc2cccc3c2O[C@@H](CN(C)Cc2ccc(-c4ccccc4)cc2)[C@@H](C)CN([C@@H](C)CO)C3=O)cc1 | 0 | 11[16.7 µM]
C[C@@H]1CN([C@H](C)CO)C(=O)Cc2cc(NC(=O)Nc3ccc(F)cc3)ccc2O[C@H]1CN(C)S(=O)(=O)c1cccs1 | 2 | 16[16.7 µM]
Cc1ccc(S(=O)(=O)Nc2cccc3c2O[C@H](CN(C)Cc2ccc(C(=O)O)cc2)[C@@H](C)CN([C@@H](C)CO)C3=O)cc1 | 12 | 3[16.7 µM]
C[C@H]1CN([C@@H](C)CO)C(=O)Cc2cc(NC(=O)c3ccncc3)ccc2O[C@H]1CN(C)C(=O)Nc1cccc2ccccc12 | 0 | -7[16.7 µM]
COc1ccc(S(=O)(=O)Nc2cccc3c2O[C@@H](CN(C)S(=O)(=O)c2cccs2)[C@@H](C)CN([C@H](C)CO)C3=O)cc1 | 7 | -4[16.7 µM]
C[C@@H]1CN([C@H](C)CO)S(=O)(=O)c2ccc(C#CC(C)(C)O)cc2O[C@H]1CN(C)C(=O)C1CCCCC1 | -2 | -23[16.7 µM]
O=C(C[C@H]1CC[C@H](NC(=O)c2ccncc2)[C@H](CO)O1)NCCc1ccncc1 | -2 | 11[16.7 µM]
C[C@@H]1CN([C@@H](C)CO)C(=O)c2cccc(NC(=O)C3CC3)c2O[C@H]1CN(C)Cc1ccc(C(F)(F)F)cc1 | -9 | 6[16.7 µM]
CO[C@@H]1CN(C)C(=O)c2ccc(NC(=O)Nc3ccc(Cl)cc3)cc2OC[C@H](C)N(C)C[C@H]1C | 5 | 4[16.7 µM]
COc1ccc(CN(C)C[C@H]2OCCCC[C@@H](C)Oc3ccc(NC(=O)Nc4ccc(F)cc4)cc3C(=O)N([C@@H](C)CO)C[C@@H]2C)cc1 | 14 | -77[16.7 µM]
C[C@@H]1CN([C@H](C)CO)C(=O)Cc2cc(NC(=O)Nc3ccc4c(c3)OCO4)ccc2O[C@@H]1CN(C)Cc1ccc(-c2ccccc2)cc1 | 3 | 26[16.7 µM]
O=C(C[C@H]1CC[C@H](NC(=O)C2CCOCC2)[C@@H](CO)O1)NCC1CCCCC1 | -18 | -5[16.7 µM]
COCC(=O)Nc1ccc2c(c1)C(=O)N(C)C[C@H](OC)[C@@H](C)CN(C(=O)COC)[C@@H](C)CO2 | -5 | -11[16.7 µM]
CNC(=O)C[C@H]1CC[C@H]2[C@H](COc3ccc(NC(=O)Nc4ccc(C)cc4)cc3C(=O)N2C)O1 | 9 | 12[16.7 µM]
CN(C)C(=O)[C@]1(Cc2ccccc2CN=[N+]=[N-])N=C(c2ccc(OCCCO)cc2)O[C@@H]1c1ccccc1 | -7 | 21[16.7 µM]
O=C(Nc1ccc2c(c1)OCO2)N[C@@H]1CC[C@@H](CCNC(=O)C2CCCCC2)O[C@@H]1CO | -9 | -15[16.7 µM]
CC(=O)N(C)C[C@@H]1Oc2cc(-c3cccnc3)ccc2S(=O)(=O)N([C@H](C)CO)C[C@@H]1C | -9 | -10[16.7 µM]
C[C@@H]1CN([C@H](C)CO)C(=O)c2cc(NC(=O)NC3CCCCC3)ccc2O[C@H]1CN(C)C(=O)Nc1ccc(F)cc1 | 7 | -4[16.7 µM]

A different layout for 4 compounds above.
Structure: O=C(C[C@H]1CC[C@H](NC(=O)c2ccncc2)[C@H](CO)O1)NCCc1ccncc1
  UUG fidelity = -2; Env fusion inh = 11[16.7 µM]
Structure: C[C@@H]1CN([C@@H](C)CO)C(=O)c2cccc(NC(=O)C3CC3)c2O[C@H]1CN(C)Cc1ccc(C(F)(F)F)cc1
  UUG fidelity = -9; Env fusion inh = 6[16.7 µM]
Structure: CO[C@@H]1CN(C)C(=O)c2ccc(NC(=O)Nc3ccc(Cl)cc3)cc2OC[C@H](C)N(C)C[C@H]1C
  UUG fidelity = 5; Env fusion inh = 4[16.7 µM]
Structure: COc1ccc(CN(C)C[C@H]2OCCCC[C@@H](C)Oc3ccc(NC(=O)Nc4ccc(F)cc4)cc3C(=O)N([C@@H](C)CO)C[C@@H]2C)cc1
  UUG fidelity = 14; Env fusion inh = -77[16.7 µM]

Structures from the list above containing a Cl atom:
SMILES | UUG fidelity | Env fusion inh
CNC[C@@H]1OCCCC[C@@H](C)Oc2ccc(NS(=O)(=O)c3ccc(Cl)cc3)cc2C(=O)N([C@H](C)CO)C[C@@H]1C | 7 | 13[16.7 µM]
C[C@@H]1CN([C@@H](C)CO)C(=O)c2cccc(N(C)C)c2O[C@H]1CN(C)Cc1ccc(Cl)c(Cl)c1 | -4 | 14[16.7 µM]
O=C(C[C@@H]1C=C[C@@H](NC(=O)Nc2ccccc2F)[C@H](CO)O1)NCc1ccc(Cl)cc1 | -15 | -5[16.7 µM]
C[C@H](CO)N1C[C@H](C)[C@H](CN(C)C(=O)Nc2ccc(C(F)(F)F)cc2)OCCCC[C@H](C)Oc2ccc(NS(=O)(=O)c3ccc(Cl)cc3)cc2C1=O | -4 | 29[16.7 µM]
CO[C@@H]1CN(C)C(=O)c2ccc(NC(=O)Nc3ccc(Cl)cc3)cc2OC[C@H](C)N(C)C[C@H]1C | 5 | 4[16.7 µM]

The list continues.
SMILES | UUG fidelity | Env fusion inh
COc1ccc(S(=O)(=O)N(C)C[C@@H]2Oc3cc(-c4ccccc4OC)ccc3S(=O)(=O)N([C@H](C)CO)C[C@@H]2C)cc1 | -14 | 30[16.7 µM]
COc1cccc(C(=O)Nc2ccc3c(c2)OC[C@H](C)NC[C@H](C)[C@H](OC)CN(C)C3=O)c1 | -6 | -5[16.7 µM]
C[C@@H]1CCCCO[C@H](CN(C)S(=O)(=O)c2ccc(F)cc2)[C@@H](C)CN([C@H](C)CO)C(=O)c2cc(NC(=O)C3CCCCC3)ccc2O1 | 4 | -2[16.7 µM]
C/C=C/c1ccc2c(c1)O[C@@H](CN(C)C(=O)c1cccnc1)[C@H](C)CN([C@H](C)CO)S2(=O)=O | -15 | 10[16.7 µM]
Cc1noc(C)c1NC(=O)N(C)C[C@@H]1OCCCC[C@@H](C)Oc2ccc(NC(=O)CCC(F)(F)F)cc2C(=O)N([C@@H](C)CO)C[C@H]1C | -6 | 0[16.7 µM]
C[C@@H]1CN([C@@H](C)CO)C(=O)c2cc(C#Cc3ccccn3)cnc2O[C@@H]1CN(C)Cc1cncnc1 | -10 | -16[16.7 µM]
O=C(NCC[C@@H]1CC[C@H](NS(=O)(=O)c2cccc(F)c2)[C@H](CO)O1)C1CCC1 | 11 | -10[16.7 µM]
COc1ccc(CN(C)C[C@H]2OCCCC[C@@H](C)Oc3ccc(NS(=O)(=O)c4c(C)noc4C)cc3C(=O)N([C@@H](C)CO)C[C@@H]2C)cc1 | 12 | -48[16.7 µM]
COc1ccc(NC(=O)N(C)C[C@@H]2OCCCC[C@H](C)Oc3ccc(NS(=O)(=O)c4cn(C)cn4)cc3C(=O)N([C@H](C)CO)C[C@@H]2C)cc1 | -12 | 33[16.7 µM]
Cc1ccc(S(=O)(=O)Nc2ccc3c(c2)CC(=O)N([C@H](C)CO)C[C@@H](C)[C@@H](CN(C)C(=O)Nc2ccc(C(F)(F)F)cc2)O3)cc1 | -2 | -21[16.7 µM]
Cc1ccc(-c2ccc3c(c2)O[C@@H](CN(C)Cc2ccncc2)[C@@H](C)CN([C@@H](C)CO)S3(=O)=O)cc1 | -6 | 21[16.7 µM]
C[C@@H]1CN([C@@H](C)CO)S(=O)(=O)c2ccc(C3=CCCCC3)cc2O[C@H]1CN(C)C(=O)Cc1cccnc1 | -7 | -1[16.7 µM]
O=C(C[C@H]1C=C[C@H](NC(=O)Nc2ccc(C(F)(F)F)cc2)[C@@H](CO)O1)NCc1cccc(F)c1 | 0 | -9[16.7 µM]
C[C@H]1CN([C@@H](C)CO)S(=O)(=O)c2ccc(-c3cncnc3)cc2O[C@@H]1CN(C)C(=O)C1CCC1 | 0 | 19[16.7 µM]
O=C(C[C@H]1C[C@H]2c3cc(NC(=O)CC4CC4)ccc3O[C@H]2[C@H](CO)O1)NCc1ccccc1 | -8 | 9[16.7 µM]
COc1ccc(NC(=O)Nc2ccc3c(c2)OC[C@H](C)NC[C@@H](C)[C@@H](OC)CN(C)C3=O)cc1 | 12 | 5[16.7 µM]
C[C@@H]1CN([C@@H](C)CO)C(=O)c2cc(C#Cc3ccccc3)cnc2O[C@@H]1CN(C)S(=O)(=O)c1ccccc1F | 24 | -5[16.7 µM]
Cc1nc(S(=O)(=O)N2CCN(Cc3cccc(OCCO)c3)CC2)cn1C | -10 | -3[16.7 µM]
C[C@@H]1CN([C@H](C)CO)S(=O)(=O)c2ccc(C#CCN(C)C)cc2O[C@@H]1CN(C)Cc1ccccc1 | 1 | -38[16.7 µM]
Cc1ccc(S(=O)(=O)Nc2ccc3c(c2)C(=O)N([C@@H](C)CO)C[C@@H](C)[C@H](CN(C)CC2CCCCC2)OCCCC[C@@H](C)O3)cc1 | 4 | -9[16.7 µM]

This is a subset, so the mix of outcomes need not match the whole.
